Screening results from PubChem BioAssay.
RE007 growth inh: qHTS Assay for Inhibitors of the HIV-1 protein Vpr; 360,000 compounds, 0.21% hits; Potency, µM (highest dose often 92.2 µM), inactives show top-dose activity change, negative = less growth; S. pombe RE007 Vpr strain, BacTiter-Glo ATP luminescence, 24 h; control for the full effect not named in the record; active = well fitted falling curve with a large enough effect; inconclusive = small, poorly fitted or top-dose-only effect; inactive = no such curve, though single readings can be large or run the other way;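 note: % is set by controls: 0 for no effect and ±100 for the full control effect; nearly all actives have a fitted effect of over 50% in size; the assay follows cell death caused by Vpr and the record does not say whether a fall means rescue or toxicity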
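Fission yeast strain RE007, carrying one chromosomally integrated HIV-1 vpr copy, was seeded at OD 0.01 in PMG+AL medium with 23 nL pinned compound. After 24 h at 30 °C and 99% humidity, viability was read by BacTiter-Glo luminescence.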
SARS PLpro yeast: qHTS of Yeast-based Assay for SARS-CoV PLP; 330,000 compounds, 0.19% hits; Potency, µM (highest dose often 32.9 µM), inactives show at the highest dose activity, positive = growth rescue; S. cerevisiae expressing SARS-CoV PLpro, growth rescue; control for the full effect not named in the record; AID 485353, 2010; note: 0% is about no effect; nearly all actives have a fitted effect of over 55% in size; growth read by luminescence after 48 h
MARV entry inh: qHTS for inhibitors of binding or entry into cells for Marburg Virus; Marburg virus pseudotyped entry inhibition, cell reporter; control for the full effect not named in the record; about a third of the inactives were read at about 46 µM; Potency, µM (top dose mostly 37.8 µM), inactives show at the highest dose activity change, negative = inhibition, most hits filed as inhibitors; 300,000 compounds, 1.8% hits; active = well fitted inhibition curve with a large enough effect; inconclusive = small, poorly fitted or top-dose-only effect, or effect the other way; inactive = flat fitted curve, though single readings scatter; tested in HEK293 cells; about a fifth of its hits are not listed in these tables; note: % is set by controls: 0 for no effect and ±100 for the full control effect; luciferase read-out
Cruzain Triton: qHTS Assay for Promiscuous and Specific Inhibitors of Cruzain (with detergent). Cruzipain (Trypanosoma cruzi), P25779. purified cruzain, Z-FR-AMC fluorescence, 0.01% Triton. Potency, µM, without a hit: max response, negative = inhibition, most hits filed as inhibitors. 200,000 compounds, 0.43% hits; active = well fitted curve in the direction sought with a large enough effect; inconclusive = small, poorly fitted or top-dose-only effect, or another doubt; inactive = no such curve, though single readings can be large; an effect the other way counts as inactive or inconclusive;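 note: plate controls were neutral wells for no effect and buffer without enzyme for full effect; nearly all actives have a fitted effect of over 40% in size; top concentration of the series not given in the record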
Target sequence (P25779 123-467 limits assumed): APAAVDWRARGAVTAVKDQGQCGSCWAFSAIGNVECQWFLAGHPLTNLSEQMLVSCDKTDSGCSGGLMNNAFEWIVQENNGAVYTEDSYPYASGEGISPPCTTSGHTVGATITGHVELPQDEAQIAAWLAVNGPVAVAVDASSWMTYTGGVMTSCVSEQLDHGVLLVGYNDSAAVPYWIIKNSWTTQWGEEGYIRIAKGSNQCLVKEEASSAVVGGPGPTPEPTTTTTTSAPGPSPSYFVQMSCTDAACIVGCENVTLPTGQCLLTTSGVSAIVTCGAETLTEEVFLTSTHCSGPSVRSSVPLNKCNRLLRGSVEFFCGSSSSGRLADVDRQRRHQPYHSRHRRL
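Detergent-containing arm of a paired screen for aggregation-based inhibition: 0.01% Triton X-100 present. Cruzain at 1.5 nM cleaved 2 uM Z-FR-AMC at pH 5.5 with 5 mM DTT; AMC fluorescence gain over 60 s measured activity.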
Cruzain inh noDet: qHTS Assay for Promiscuous and Specific Inhibitors of Cruzain (without detergent) | purified cruzain, Z-FR-AMC fluorescence, no detergent | 200,000 compounds, 2.3% hits | Potency, µM, inactives show max response, negative = inhibition, usual class: inhibitors | AID 1476, 2009; active = well fitted curve in the direction sought with a large enough effect; inconclusive = small, poorly fitted or top-dose-only effect, or another doubt; inactive = no such curve, though single readings can be large; an effect the other way counts as inactive or inconclusive;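 note: plate controls were enzyme without inhibitor for no effect and buffer without enzyme for full effect; nearly all actives have a fitted effect of over 40% in size; top concentration of the series not given in the record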
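Detergent-free condition (0.00005% Triton X-100) in acetate buffer pH 5.5 with DTT. 1.5 nM enzyme and compound were pre-mixed 15 min, then 2 uM Z-FR-AMC substrate added; reaction progress from fluorescence change between first and third reads (60 s).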
NS1 inh: qHTS Assay for Inhibitors of Influenza NS1 Protein Function; S. cerevisiae slowed by influenza A NS1, growth recovery by OD600; Potency, µM (titrated, usually from 46.1 µM), for inactives: at the highest dose activity, positive = more growth; 270,000 compounds, 0.4% hits; note: actives are rising curves; nearly all actives have a fitted effect of over 50% in size
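In this qHTS, NS1 from influenza A is expressed in budding yeast, where it slows growth. Cells are switched from glucose to 2% galactose medium (pH 6.0, -URA), treated with compound, and growth recovery is read at OD600.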
Lassa entry inh: qHTS for Inhibitors of binding or entry into cells for Lassa Virus; Lassa virus pseudotype entry inhibition, cell reporter; control for the full effect not named in the record; Potency, µM (titrated, usually from 37.9 µM), inactives show top-dose activity change, negative = inhibition, actives largely listed as inhibitors; 300,000 compounds, 1.2% hits; AID 540256, 2011; active means well fitted inhibition curve with a large enough effect; inconclusive means small, poorly fitted or top-dose-only effect, or effect the other way; inactive means flat fitted curve, though single readings scatter; tested in HEK293 cells; note: % is set by controls: 0 for no effect and ±100 for the full control effect; nearly all actives have a fitted effect of over 50% in size; luciferase read-out
2A StopGo: High Throughput Screening for Foot and Mouth Disease Virus Antivirals | human cells with a luciferase reporter of 2A StopGo recoding; control for the full effect not named in the record | Potency, µM (top dose mostly 57.9 µM), for inactives: top-dose signal change, negative = less light | 410,000 compounds, 1.2% hits; active = well fitted falling curve with a large enough effect; inconclusive = small, poorly fitted or top-dose-only effect; inactive = no such curve, though single readings can be large or run the other way; tested in HEK293T cells; note: % is set by controls: 0 for no effect and ±100 for the full control effect; nearly all actives have a fitted effect of over 45% in size; luciferase light after 4 h
* = called active by the depositor; ? = inconclusive; · = not tested or not shown; & = joins results of further samples; [ ] = dose if it differs, or a comment. Unless noted, calls come from the whole dose curve; as a rule, active means well fitted rising curve with a large enough effect; inconclusive means small, poorly fitted or top-dose-only effect; inactive means no such curve, though single readings can be large or run the other way. Potency is the fitted concentration of half-maximal effect.

SMILES	RE007 growth inh	SARS PLpro yeast	MARV entry inh	Cruzain Triton	Cruzain inh noDet	NS1 inh	Lassa entry inh	2A StopGo
CCCc1cc(=O)n2nc(N3CCC(C(=O)N4CCN(c5cccc(OC)c5)CC4)CC3)sc2n1	-6%	-7%	·	·	·	10%	·	?
Cc1ccc(-c2ccc(CCC(=O)O)n2NC(=O)c2ccc([N+](=O)[O-])cc2)cc1	0%	2%	-17%	·	·	-3%	20%[46.1 µM]	6%
CCCCc1nn2c(=O)cc(COC(=O)c3ccccc3NC(=O)c3cccs3)nc2s1	·	·	·	0.3%	-5%	·	31%[46.1 µM]	-1%
Cc1ccc(C)c(N(C(=O)c2csnn2)C(C(=O)NC2CCCC2)c2ccncc2)c1 (configuration not stated)	2%	0%	9%[46.1 µM]	·	·	3%	3%	3%
O=C(NCC1CCCCC1)C1(CC2CC(c3cccc(Br)c3)=NO2)CCNCC1 (configuration not stated)	3%	9%	·	·	·	6%	·	0%
Cc1cc(N2CCCC(C(=O)Nc3cccc4ccccc34)C2)n2ncnc2n1 (configuration not stated)	?	-1%	-15%[46.1 µM]	·	·	·	-22%	?
CCOC(=O)c1cccc(NC(=S)NC(=O)c2cccnc2)c1	-6%	6%	3%[46.1 µM]	·	·	6%	-2%[46.1 µM]	7%
COc1ccc(C[C@H]2CN3C(=NC[C@@H]3C)N2CCNC(=O)CCC2CCCCC2)cc1	7%	0%	·	·	·	4%	·	-7%
O=C(Nc1ccc(S(=O)(=O)N2CCOCC2)cc1)c1cccs1	-1%	7%	-11%	8.4%	-3%	4%	?	1%
Clc1ccc(OCCn2ccnc2)c2ccccc12	-2%	·	?	-12%	8%	-112%	11%[14.3 µM]	0%
CCOc1ccc(/C=C2\SC(=S)N(CC(=O)N(CCO)C(C)(C)C)C2=O)cc1	4%	0%	?	·	·	4%	-16%	-20%
Cn1cc(C(=O)NCc2ccc(F)cc2)cn1	22%	0%	?	·	·	·	-6%	1%
O=C1CC(c2cccc(O)c2)Oc2ccccc21 (configuration not stated)	12%	-3%	8%	·	·	·	-33%	23%
Cc1ccc(C)c(NC(=O)CCN2CCN(CCO)CC2)c1	0%	1%	·	·	·	2%	·	-10%
Cc1ccc(SCc2ccc(C(=O)Nc3cccnc3)cc2)cc1	1%	15%	1%	-29%	-5%	15%	?	0%
Cc1cc(C)cc(NC(=O)Cn2nnc(C(=O)NCc3ccco3)c2N)c1	0%	0%	?	-1.4%	-7%	-10%	-23%&-29%[46.1 µM]	1%&-24%
COc1cc(C(=O)NCCNC(=O)c2ccco2)cc(OC)c1OC	-12%	·	5%[46.1 µM]	·	·	·	-26%	30%[activator]
Cc1cc(NC(=O)C(C)SCC(=O)OCc2c(Cl)cccc2Cl)no1 (configuration not stated)	-6%	-13%	21%	·	·	-20%	6%	-19%
C/C(=N\N=C(N)N)c1ccc(Cl)cc1Cl	16%	0%	?	·	·	-5%	?	?
COc1ccc(N2CCN(C(=O)COC(=O)c3ccc(C)o3)CC2)cc1	1%	-1%	20%	·	·	·	?	-2%
CCN(CC)c1ccc(NC(=O)c2cccnc2)c(C)c1	-8%	3%	7%	2.2%	-1%	1%	2%	-17%
CCN(CC)C(=O)CSc1nnc(-c2ccccc2)c(-c2ccccc2)n1	8%	6%	-18%	-6.0%	-7%	-13%	-9%	-18%
NC1=NC[C@H](Cc2ccc(O)cc2)N1CC1CCCCC1	-9%	0%	·	·	·	-1%	·	-5%
Cn1nnc(NC(=S)NC(=O)c2cc(Cl)ccc2Cl)n1	-5%	3%	·	·	·	-73%	·	14%
CCC(=O)NCCc1cc2ccc(C)c(C)c2[nH]c1=O	-2%	-30%	5%	-1.6%	6%	-44%	3%	17%

The list goes on:
SMILES	RE007 growth inh	SARS PLpro yeast	MARV entry inh	Cruzain Triton	Cruzain inh noDet	NS1 inh	Lassa entry inh	2A StopGo
Cc1nc(N)sc1C(=O)N/N=C/c1ccc([N+](=O)[O-])cc1	6%	0%	5%[46.1 µM]	·	·	0%	8%	0%
O=S(=O)(NC1CCCCC1)c1ccc(S(=O)(=O)N2CCN3CCCC3C2)cc1 (configuration not stated)	16%	2%	-1%	1.8%	-9%	-4%	4%	11%
COc1ccc(CN(C(=O)c2snc(C(N)=O)c2N)C(C(=O)NC2CCCC2)c2cc(OC)ccc2OC)cc1 (configuration not stated)	0%	-10%	-27%[46.1 µM]	·	·	16%	?	30%[activator]
Cc1ccc(C(=O)N/C(=C/c2ccc(Cl)cc2)C(=O)N2CCOCC2)cc1	1%	3%	-19%[46.1 µM]	·	·	-2%	13%[46.1 µM]	54%[activator]
Cc1ccc(-c2nc(NCc3ccco3)c3ccccc3n2)cc1	-12%	-96%	2%	-9.0%	0%	-33%	?	24%
Cc1ccc(S(=O)(=O)NCc2nc(-c3cccc(C)c3)no2)cc1	·	·	9%[46.1 µM]	-9.3%	2%	·	8%[46.1 µM]	7%
CCOC(=O)c1c(C)oc2nc(C)nc(NCCc3ccc(OCC)c(OCC)c3)c12	·	·	·	-3.1%	-1%	·	?	-30%
Cc1sc2ncnc(N3CCC(C)CC3)c2c1C	-16%	5%	-10%	-1.9%	-12%	-8%	11%	?
CC(NC(=O)c1ccccc1)c1nc2ccccc2n1Cc1ccc(Cl)cc1 (configuration not stated)	·	·	-11%[46.1 µM]	-0.8%	5%	·	-22%[46.1 µM]	-24%
Cc1ccc2cc(CN(Cc3ccco3)C(=S)NCC3CCCO3)c(=O)[nH]c2c1C (configuration not stated)	6%	23%	-28%	-6.8%	9%	9%	-17%	13%
CCOC(=O)/C=C/c1ccc2oc3ccccc3c(=O)c2c1	-15%	7%	·	·	·	-1%	·	36%[activator]
COc1ccccc1NC(=O)C1=C(C)Nc2nc(SCc3ccccc3C)nn2C1CC(C)C (configuration not stated)	·	·	2%[46.1 µM]	-1.7%	-7%	·	6%[46.1 µM]	-4%
O=C(CSc1nnc(CNC(=O)c2ccccc2)o1)NCc1ccc2c(c1)OCO2	-11%	7%	21%	·	·	1%	-11%	4%
Fc1ccc(-c2nnc(CN3CCC(c4nc5ccccc5s4)CC3)o2)cc1	-25%	5%	?	-11%	24%	-53%	?	-27%
O=C(OCc1ccccn1)c1ccc(COc2ccccc2Cl)o1	-13%	1%	17%	-9.9%	5%	-96%	-15%	25%
O=C(c1ccc2ccccc2c1)C1CCCN(C(=O)c2cccnc2)C1 (configuration not stated)	-9%	-1%	2%	·	·	-7%	-26%	?
CCCCC1=NN(C(=O)c2cocc2C)C(O)(C(F)(F)F)C1 (configuration not stated)	17%	-21%	1%	-2.5%	-6%	6%	?	12%
CCCOc1ccc(CNC(=O)C2CCCN(c3nc4c(C)cc(C)cc4s3)C2)cc1 (configuration not stated)	·	·	-13%[46.1 µM]	-0.9%	4%	·	·	-25%
CCOc1ccc(-c2cccc(NS(=O)(=O)c3c(C)cc(C)cc3C)c2)nn1	·	·	·	-8.5%	-14%	·	-13%[46.1 µM]	-3%
O=C(NCc1ccc(F)cc1)C(Cc1ccccc1)n1cccc1 (configuration not stated)	-6%	-2%	·	·	·	-7%	·	-17%
Cc1ccc(C)c(OCCC(=O)OCC(=O)NC(=O)NC2CCCC2)c1	-14%	-2%	-5%	·	·	·	0%	-14%
COc1cccc(C2CC(c3ccc(C)cc3)=NN2C(=O)c2ccccc2F)c1OC (configuration not stated)	4%	-3%	·	·	·	7%	·	-6%
CN(CC(=O)Nc1ccc(Br)cc1)S(=O)(=O)c1cccc2nsnc12	·	·	0%[46.1 µM]	-8.1%	-4%	·	11%[46.1 µM]	?
c1ccc(C2=NNC(=NC3CC3)SC2)cc1	?	-16%	?	-2.7%	-9%	-5%	8.2µM*	·
CC(O)CNc1nc(N)[nH]c(=O)c1N=Nc1ccccc1 (configuration not stated)	-2%	·	1%	·	·	·	-13%	4%

(further entries)
SMILES	RE007 growth inh	SARS PLpro yeast	MARV entry inh	Cruzain Triton	Cruzain inh noDet	NS1 inh	Lassa entry inh	2A StopGo
O=C(Nc1ccc2c(c1)OCO2)c1ccncc1	8%	6%	0%[46.1 µM]	1.7%	4%	-1%	6%	47%[activator]
CCOc1ccc2nc(NC(=O)CSc3ccc(Cl)cc3)sc2c1	16%	-6%	?	-1.3%	?	-1%	?	22%
O=C(CS(=O)(=O)c1cccc2nsnc12)N1CCN(c2cccc(Cl)c2)CC1	·	·	·	-2.3%	15%	·	-2%[46.1 µM]	-3%
C=CC[C@@H]1Cc2c(Br)ccc(Br)c2[C@@H](CC=C)N1	·	-8%	-8%	-2.2%	-1%	-12%	0%	?
O=S(=O)(Nc1ccc(N2CCOCC2)cc1)c1ccc2ccccc2c1	0%	-14%	5%	-7.2%	-2%	-8%	-6%	4%
O=C(NCc1cccnc1)c1cc(C(=O)C2CC2)c[nH]1	1%	1%	18%[46.1 µM]	·	·	·	-15%	0%
CCN(CC)c1ccc(NC(=O)CN2CCN(CC(=O)Nc3ccccc3F)CC2)cc1	10%	25%	0%&0%	8.2%	3%	1%	3%	-26%
CCCCN(C(=O)Cn1ncc(Cl)c(Cl)c1=O)c1c(N)n(CC(C)C)c(=O)[nH]c1=O	-14%	0%	·	·	·	3%	·	-20%
CCn1ncc(/C=C/C(=O)C2CC2)c1C	4%	-18%	?	-5.6%	4%	5%	15%	26%
COC(=O)[C@@H](N)Cc1ccc(O)cc1	·	-8%	0%&-7%	0.2%	9%	-5%	-16%	·
O=C(COC(=O)Cc1n[nH]c(=O)c2ccccc12)NNC(=O)c1ccc(Cl)cc1	3%	3%	?	·	·	·	1%	6%
Cc1cc(=O)oc2cc(NC(=O)c3ccccc3OC(F)F)ccc12	-3%	-2%	5%[46.1 µM]	·	·	4%	-13%	67%[activator]
COC(=O)C(Cc1c[nH]c2ccccc12)NC(=O)C(=O)c1c[nH]c2ccccc12 (configuration not stated)	4%	-7%	·	·	·	-59%	·	14%
